# Cruzain inh noDet: inhibitors of Trypanosoma cruzi cruzain without detergent | P25779 | purified cruzain, Z-FR-AMC fluorescence, no detergent | Potency, µM, for inactives: max response, negative = inhibition, actives largely listed as inhibitors | 200,000 tested, 2.3% active | AID 1476; active = well fitted curve in the direction sought with a large enough effect; inconclusive = small, poorly fitted or top-dose-only effect, or another doubt; inactive = no such curve, though single readings can be large; an effect the other way counts as inactive or inconclusive;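 also: plate controls were enzyme without inhibitor for no effect and buffer without enzyme for full effect; nearly all actives have a fitted effect of over 40% in size; top concentration of the series not given in the record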
# Target sequence (P25779 123-467 limits assumed): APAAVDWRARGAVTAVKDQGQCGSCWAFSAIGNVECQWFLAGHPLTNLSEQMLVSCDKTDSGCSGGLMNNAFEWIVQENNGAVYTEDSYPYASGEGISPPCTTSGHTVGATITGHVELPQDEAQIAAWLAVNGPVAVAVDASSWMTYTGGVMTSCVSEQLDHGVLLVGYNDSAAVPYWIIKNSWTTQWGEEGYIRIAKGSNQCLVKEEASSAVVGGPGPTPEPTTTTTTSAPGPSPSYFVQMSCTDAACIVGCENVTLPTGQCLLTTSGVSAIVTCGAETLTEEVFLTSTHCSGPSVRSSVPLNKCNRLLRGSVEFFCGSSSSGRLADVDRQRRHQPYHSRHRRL
#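 Purified cruzain at 1.5 nM, pre-incubated 15 min with compound at room temperature in 100 mM sodium acetate pH 5.5, 5 mM DTT, 0.00005% Triton X-100. Reaction started with 2 uM Z-FR-AMC; AMC fluorescence increase over 60 s gives rate.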
# Lassa entry inh: Lassa virus entry inhibition; Lassa virus pseudotype entry inhibition, cell reporter; control for the full effect not named in the record; Potency, µM (doses to about 37.9 µM), for the others: at the highest dose activity change, negative = inhibition, hits mostly inhibitors; 300,000 tested, 1.2% active; AID 540256; active means well fitted inhibition curve with a large enough effect; inconclusive means small, poorly fitted or top-dose-only effect, or effect the other way; inactive means flat fitted curve, though single readings scatter; tested in HEK293 cells; also: % is scaled to controls: 0 for no effect and ±100 for the full control effect; nearly all actives have a fitted effect of over 50% in size; luciferase read-out
# Cruzain Triton: cruzain (T. cruzi) inhibition with detergent; P25779; purified cruzain, Z-FR-AMC fluorescence, 0.01% Triton; Potency, µM, inactives show max response, negative = inhibition, hits mostly inhibitors; 200,000 tested, 0.43% active; active = well fitted curve in the direction sought with a large enough effect; inconclusive = small, poorly fitted or top-dose-only effect, or another doubt; inactive = no such curve, though single readings can be large; an effect the other way counts as inactive or inconclusive;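 also: plate controls were neutral wells for no effect and buffer without enzyme for full effect; nearly all actives have a fitted effect of over 40% in size; top concentration of the series not given in the record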
#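 15 min RT preincubation of 1.5 nM cruzain with compound, then 2 uM Z-FR-AMC added; kinetic AMC fluorescence, 60 s delta. Triton X-100 0.01%, pH 5.5.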
# 2A StopGo: FMDV 2A StopGo reporter, luciferase signal; 410,000 tested, 1.2% active; AID 1159524; Potency, µM (series often up to 57.9 µM), inactives show top-dose signal change, negative = less light; human cells with a luciferase reporter of 2A StopGo recoding; control for the full effect not named in the record; active = well fitted falling curve with a large enough effect; inconclusive = small, poorly fitted or top-dose-only effect; inactive = no such curve, though single readings can be large or run the other way; tested in HEK293T cells; also: % is scaled to controls: 0 for no effect and ±100 for the full control effect; nearly all actives have a fitted effect of over 45% in size; luciferase light after 4 h
# NS1 function inh: influenza NS1 inhibition | S. cerevisiae slowed by influenza A NS1, growth recovery by OD600 | Potency, µM (top dose mostly 46.1 µM), without a hit: top-dose activity, positive = more growth | 270,000 tested, 0.4% active; also: actives are rising curves; nearly all actives have a fitted effect of over 50% in size
#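 A cell-based growth assay was used: compounds that relieve NS1-induced slow growth of budding yeast raise OD600. Assay medium was yeast nitrogen base with ammonium sulphate and -URA supplement, pH 6.0, with 2% galactose.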
# SARS PLpro yeast: blocks SARS-CoV papain-like protease in a yeast assay; S. cerevisiae expressing SARS-CoV PLpro, growth rescue; control for the full effect not named in the record; Potency, µM (top dose mostly 32.9 µM), inactives show top-dose activity, positive = growth rescue; 330,000 tested, 0.19% active; AID 485353; also: 0% is about no effect; nearly all actives have a fitted effect of over 55% in size; growth read by luminescence after 48 h
# Marburg entry inh: Marburg virus entry inhibition | Marburg virus pseudotyped entry inhibition, cell reporter; control for the full effect not named in the record; about a third of the inactives were read at about 46 µM | Potency, µM (doses to about 37.8 µM), inactives show top-dose activity change, negative = inhibition, most hits filed as inhibitors | 300,000 tested, 1.8% active | AID 540276; active = well fitted inhibition curve with a large enough effect; inconclusive = small, poorly fitted or top-dose-only effect, or effect the other way; inactive = flat fitted curve, though single readings scatter; tested in HEK293 cells; about a fifth of its hits are not listed in these tables; also: % is scaled to controls: 0 for no effect and ±100 for the full control effect; luciferase read-out
# RE007 growth inh: less growth of the S. pombe RE007 Vpr strain | S. pombe RE007 Vpr strain, BacTiter-Glo ATP luminescence, 24 h; control for the full effect not named in the record | Potency, µM (top dose mostly 92.2 µM), for inactives: at the top dose activity change, negative = less growth | 360,000 tested, 0.21% active | AID 651644; active = well fitted falling curve with a large enough effect; inconclusive = small, poorly fitted or top-dose-only effect; inactive = no such curve, though single readings can be large or run the other way;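 also: % is scaled to controls: 0 for no effect and ±100 for the full control effect; nearly all actives have a fitted effect of over 50% in size; the assay follows cell death caused by Vpr and the record does not say whether a fall means rescue or toxicity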
#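 Fission yeast RE007 carrying one integrated HIV-1 vpr copy, seeded at OD 0.01 in PMG+AL medium with 23 nL pinned compound. Grown 24 h at 30 degrees; viability read by BacTiter-Glo luminescence after 5 min.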
# The depositor's hits bear a star; ? = inconclusive; / = no result given; & = joins results of further samples; [ ] = remark or other dose. Unless noted, calls follow the shape of the dose curve; as a rule, active means well fitted rising curve with a large enough effect; inconclusive means small, poorly fitted or top-dose-only effect; inactive means no such curve, though single readings can be large or run the other way. Potency is read from the fitted curve at half-maximal effect.
SMILES,Cruzain inh noDet,Lassa entry inh,Cruzain Triton,2A StopGo,NS1 function inh,SARS PLpro yeast,Marburg entry inh,RE007 growth inh
CC1(C)CC(=O)C=C(C(=O)N2CCCC(C(=O)c3cccc(C(F)(F)F)c3)C2)O1 (stereo not drawn),/,-11%,/,-10%,-3%,-2%,-26%,2%
COC(=O)c1sc(NC(=O)CSc2nc3cccnc3n2C2CCCCC2)nc1C,?,12%,-0.3%,-24%,-2%,-1%,-1%&8%,-14%
O=C(c1cc2ccccc2o1)N1CCCC1,/,/,/,33%[activator],-6%,-1%,/,-8%
C=CCn1c(CCc2ccccc2)nnc1SCC(N)=O,/,/,/,-9%,4%,0%,/,8%
Cc1ccc(C)c(N(C(=O)c2snc(C(N)=O)c2N)C(C(=O)NCC2CCCO2)c2cccs2)c1 (stereo not drawn),/,?,/,0%,/,2%,?,1%
Cc1cc2ncn(C(=O)c3ccc4c(c3)OCO4)c2cc1C,-18%,0%,0.5%,23%,-4%,-4%,14%[46.1 µM],11%
Cn1c(=O)c2c(O)cc(=O)n(-c3ccccc3)c2n(C)c1=O,3%,-8%,0.2%,-3%,19%,3%,-1%,-19%
CCCNC(=O)COc1coc(CN2CCN(c3cccc(Cl)c3)CC2)cc1=O,/,11%[46.1 µM],/,-19%,-10%,-8%,-13%[46.1 µM],-13%
CN(C(=O)c1ccno1)c1nnc(-c2cnccn2)s1,-10%,3%,-3.8%,9%,-1%,0%,14%,22%
CSCCNC(=O)c1ccc2nc(C3CCCCC3)oc2c1,/,-10%,/,28%,-63%,-7%,?,-1%
Cc1cc(C)n2c(=O)c3ccc(Cl)cc3nc2c1C#N,/,12%,/,31%[activator],/,-8%,24%[46.1 µM],-11%
Cn1cc(Cl)c(C(=O)Nc2nc3ccc([N+](=O)[O-])cc3s2)n1,/,?,/,38%[activator],-2%,-1%,13%[46.1 µM],6%
Cn1ncc(Cl)c1C(=O)Nc1ccc(CN2CCCCC2)cc1,/,20%[46.1 µM],/,-2%,-3%,1%,1%[46.1 µM],-13%
Cc1ccc2c(CN3CCN(S(=O)(=O)c4ccc5c(c4)OCCO5)CC3)cc(=O)oc2c1C,?,?,0.9%,?,3%,1%,?,-11%
O=C(CCCc1ccccc1)NCc1cccnc1,-2%,?,6.3%,26%,0%,-2%,1%,-3%
O=C1CSC(c2cccc([N+](=O)[O-])c2)N1c1ccccc1F (stereo not drawn),/,-3%,/,-5%,/,5%,14%,1%
CCSc1nnc(NC(=O)CSc2nnc(CNC(=O)c3cc(OC)c(OC)c(OC)c3)o2)s1,?,-11%,2.5%,-18%,4%,20%,?,-1%
CC(C)(C)C(=O)NC(=S)Nc1ccccc1N1CCCC1,/,/,/,-2%,4%,1%,/,-5%
O=C1CNC(=S)N1Cc1ccccc1Cl,/,/,/,13%,7%,3%,/,-7%
COc1ccc(NC(=O)c2ccc3nc(-c4ccccc4)c(-c4ccccc4)nc3c2)c(OC)c1,-19%,10%,1.6%,-24%,-6%,5%,-12%,4%
Cc1cc(=O)oc(C)c1C(=O)Nc1ccc2nsnc2c1,-2%,6%,-6.4%,25µM*,-5%,-2%,24%,15%
COc1cc(OC)c(NC(=O)CSC2=Nc3ccccc3N=C(c3ccc(F)cc3)C2)cc1Cl,-20%,20%[46.1 µM],-0.9%,-23%,/,/,/,/
O=[N+]([O-])c1cc(S(=O)(=O)N2CCCC2)ccc1N/N=C/c1cccs1,-10%,-16%,3.5%,9%,?,7%,-14%,-11%
COc1ccc(C(c2nnnn2CC2CCCO2)N2CCN(c3ccccc3)CC2)cc1 (stereo not drawn),6%,?,1.9%,-2%,-10%,-8%,-25%,-13%
NC(=O)c1cc(S(=O)(=O)NCc2ccc(Br)cc2)cs1,-2%,-28%&1%[46.1 µM],1.3%,6%&1%,17%,-2%,?,10%
Cc1cc(C(=O)Nc2sc3c(c2C#N)CCCC3)no1,-14%,?,-8.3%,22%,-49%,-46%,?,-17%
CN(C)CCNc1nc(-c2ccccc2)nnc1C(F)(F)F,-4%,6%,1.1%,0%,4%,1%,10%,19%
COc1ccc(CC(=O)NC2CC2)cc1OC,/,/,/,11%,1%,0%,/,-17%
O=C(NN1C(=O)C2C3c4ccccc4C(c4ccccc43)[C@@H]2C1=O)c1ccccc1 (stereo partly drawn),5%,-8%,-3.3%,-23%,10%,-7%,?,-1%
C=CCN1C=CC(=O)CC1,/,/,/,-13%,27%,-3%,/,2%
Cc1cc2ccccn2c1C(=O)Nc1ccccc1,/,?,/,19%,-3%,-1%,?,-16%
CC(C)(C)NC(=O)C(c1ccco1)N(C(=O)Cn1nnc(-c2ccc(F)cc2)n1)c1cccc(F)c1 (stereo not drawn),-7%,-3%,-9.8%,12%,-33%,-7%,-5%,11%
Cc1onc(C(=O)Nc2ccccc2C(F)(F)F)c1[N+](=O)[O-],/,/,/,-16%,24%,2%,/,-12%
NNC(=O)c1nnn(-c2nonc2N)c1CN1CCCC1,/,/,/,-5%,3%,-4%,/,-7%
Cc1ccc(CSc2nnc(SCC(=O)N/N=C/C=C/c3ccco3)s2)cc1,?,?,-5.5%,11%,18%,12%,?,0%
COc1ccccc1N1C(=O)c2cccc3c(Cl)ccc(c23)C1=O,/,?,/,-29%,7%,-1%,1%,-9%
O=c1[nH]c(N2CCCCC2)nc2c1CCCC2,-6%,12%,1.6%,17%,-2%,2%,5%[46.1 µM],-2%
COc1ccc(-c2noc(-c3ccc(N4CCC(C)CC4)c([N+](=O)[O-])c3)n2)cc1OC,20µM*,-10%[46.1 µM],-6.9%,0%,/,/,-11%[46.1 µM],/
CCOC(=O)C1CCC(CN(Cc2c(Cl)cccc2Cl)S(=O)(=O)c2ccc(F)c(C)c2)CC1 (stereo not drawn),-6%,?,0.4%,-15%,/,/,/,/
CCOC(=O)c1sc2nccc(OC)c2c1N=CNOC,/,-14%,/,-22%,/,1%,-11%[46.1 µM],8%
Cc1ccc(C)c(N2CCN(CCCNC(=O)Cn3ncc4c5ccccc5n(C)c4c3=O)CC2)c1,9%,1%[46.1 µM],-4.4%,-12%,/,/,-9%[46.1 µM],/
Cc1ccc(C)c(N2CCN(C(=O)c3cc4c(=O)n(Cc5ccccc5)ccc4nc3C)CC2)c1,?,?,-9.7%,-26%,/,/,/,/
O=C(OC1CCCCC1)c1ccc(NC(=O)c2ccco2)cc1,-12%,?,-7.1%,?,-106%,-29%,12%,-13%
CCCc1cc(=O)oc2c3c(c4c(c12)OC(C)(C)C=C4)OC(C)C(C)C3O (stereo not drawn),/,/,/,-1%,0%,-4%,/,-17%
CCOc1cc(CNC(=O)c2ccccc2NC(=O)c2nsc3ccccc23)ccc1OC,-3%,0%[46.1 µM],3.1%,-20%,/,/,/,/
Cc1ccc(S(=O)(=O)N(CC(=O)NCC2CCCO2)Cc2cccc(C)c2)cc1 (stereo not drawn),/,-5%,/,8%,6%,-4%,37%,-9%
CCOc1ccc(CCNC(=O)C2=C(C)C(=O)OC23CCCCC3)cc1,6%,0%[46.1 µM],0.1%,-10%,/,/,-2%[46.1 µM],/
O=C(Cn1ccc2ccccc2c1=O)NCC(=O)N1CCN(c2ccc(F)cc2)CC1,/,11%[46.1 µM],/,-16%,-4%,1%,4%[46.1 µM],-8%
O=C(Oc1nsnc1N1CCOCC1)c1ccccc1,-8%,10%,-1.7%,/,2%,0%,-15%,8%
COc1cc(/C=C2\SC(N)=NC2=O)ccc1OCC(=O)Nc1ccc(C)cc1,-12%,1%,-1.2%,-1%,12%,4%,-13%,19%
CC1(C)Cc2cccc(OCC(=O)Nc3ccccc3C(F)(F)F)c2O1,/,/,/,-5%,-58%,-5%,/,-20%
Nc1ccnn1-c1ccccc1,/,/,/,-2%,5%,1%,/,-13%
Cc1ccc(OCC(=O)Nc2ccc(OCc3cc(=O)n4c(C)csc4n3)cc2)cc1C,-10%,?,1.4%,14%,/,/,10%[46.1 µM],/
Cc1nc2nc(COc3ccccc3)[nH]n2c(=O)c1Cl,7%,-28%,-7.7%,5%,2%,0%,4%,-21%
CC(=O)c1ccc(OCc2cc(C(=O)N3CC4C[C@@H]5CC3C[C@H](C4)C5)no2)cc1,/,-41%,/,-10%,-17%,16%,-13%,5%
CC(=O)c1ccc(OCC(=O)c2cc(C)n(-c3ccc4c(c3)OCO4)c2C)cc1,-9%,?,-3.9%,?,13%,16%,?,-1%
Cc1nc2ccccc2c2c(N)c3ccccc3n12,/,-4%,/,-21%,/,0%,-21%[46.1 µM],?
Cc1cc(C)cc(OCC(=O)Nc2cccc(-c3nc4ccccc4[nH]3)c2)c1,-21%,-5%[46.1 µM],-4.5%,14%,/,/,?,/
O=C(Cc1coc2ccc3ccccc3c12)N1CCN(c2ncccn2)CC1,25%,-7%,0.3%,-20%,-9%,2%,-2%,-8%
Cc1ccc(NCc2nc3ccccc3n2CCOc2ccccc2C)cc1,-12%,-17%[46.1 µM],-6.6%,17%,/,/,-14%[46.1 µM],/

# Later entries:
SMILES,Cruzain inh noDet,Lassa entry inh,Cruzain Triton,2A StopGo,NS1 function inh,SARS PLpro yeast,Marburg entry inh,RE007 growth inh
CC1=C(C(=O)Nc2cc(Cl)ccc2C)C(c2ccco2)n2ncnc2N1 (stereo not drawn),8%,-19%[46.1 µM],-2.1%,0%,/,/,/,/
C=CSc1sc(Cl)c(N(CC)CC)c1[N+](=O)[O-],/,15%,/,0%,15%,0%,25%[46.1 µM],1%
COCc1cc(C)n(CC(=O)Nc2ccccc2OC)c(=O)c1C#N,3%,?,0.7%,4%,-3%,-4%,10%,-4%
CCN(CC)C(=O)COc1ccc(-c2ccccc2)cc1,6%,?,3.1%,46%[activator],-37%,1%,3%,?
CCOC(=O)N1CCN(c2ccnc3cc(Cl)ccc23)CC1,/,4%,/,-19%,-9%,13%,?,-17%
